Screening results: PubChem, Southern Research Institute
Mtb H37Rv – Mycobacterium tuberculosis H37Rv growth inhibition, putative kinase inhibitor library, confirmatory dose response (AID 2842). M. tuberculosis H37Rv growth inhibition; higher % means a stronger effect; some inactives read as strong as hits. inhibition, % at 10 µg/mL, or IC90 in µg/mL where a hit was titrated. 24,000 tested, 5.2% active;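 active means confirmed in a dose series; about a fifth of its hits are not listed in these tables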;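 further: bacteria incubated one week before Alamar blue readout; 0% = bacteria only wells and 100% = bacteria with high antibiotic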
* hit, by the source's call.

SMILES	Mtb H37Rv
CCCCCCCCn1c(SC(C)C(=O)OC)nc2c1c(=O)[nH]c(=O)n2C (configuration not stated)	17%
CCc1nnc(NC(=O)c2ccc(S(=O)(=O)N(CC)CC)cc2)s1	3%
CN(C)CCNc1ncnc(N)c1[N+](=O)[O-]	-1%
O=C(CCCCCn1c(=O)[nH]c2ccsc2c1=O)NCc1ccc2c(c1)OCO2	-7%
Cc1cc(NC(=O)CSc2ncnc3c2cnn3-c2ccc(Cl)cc2)no1	4%
O=C(Nc1nc2c(cc3c4c(cccc42)CC3)s1)c1cccc2ccccc12	1%
Cc1ccc(NC(=O)CN2C(=O)/C(=C3\SC(=S)N(CCC(=O)O)C3=O)c3ccccc32)c(C)c1	-18%
CCc1ccccc1NC(=O)CC1Nc2ccccc2NC1=O (configuration not stated)	3%
COC(=O)CSC(C)C(=O)Nc1nnc(-c2ccc(F)cc2)s1 (configuration not stated)	-5%
O=C(CSc1nc2c([nH]c3ccccc32)c(=O)n1-c1ccccc1)NCC1CCCO1 (configuration not stated)	0%
CC1CCc2c(sc(NC(=O)c3cc(=O)c4ccccc4o3)c2C#N)C1 (configuration not stated)	66%
CC(=O)NC(=O)c1cc2cc(Br)ccc2oc1=Nc1ccc(F)cc1	-6%
CCOC(=O)c1nn(-c2cccc(F)c2)c(=O)c2c(NC(=O)c3ccc(S(=O)(=O)N4CCCCC4)cc3)scc12	-2%
Nc1nc(SCC(=O)Nc2ccccc2F)[nH]c(=O)c1NC(=O)c1ccccc1F	-7%
Cc1ccc(C(=O)Nc2cccc(-c3ccc4nncn4n3)c2)cc1C	-7%
COc1ccc2cc(CCNC(=O)c3ccccc3C(F)(F)F)c(=O)[nH]c2c1	-9%
Cc1ccc([N+](=O)[O-])c(OCCSc2nnc3sc4ccccc4n23)c1	35%
CCOC(=O)c1nn(-c2ccc(C(F)(F)F)cc2)c(=O)c2c(NC(=O)c3ccc(OCC)cc3)scc12	9%
CCN(C(=O)COc1ccc(Cl)cc1Cl)C1CCS(=O)(=O)C1 (configuration not stated)	-6%
CC(=O)Nc1ccc(NC(=O)CSc2nnc3[nH]c(=O)c(C)c(C)n23)cc1	-12%

An excerpt from above in order of length of the SMILES, low to high.
SMILES	Mtb H37Rv
O=C(Nc1nc2c(cc3c4c(cccc42)CC3)s1)c1cccc2ccccc12	1%
Nc1nc(SCC(=O)Nc2ccccc2F)[nH]c(=O)c1NC(=O)c1ccccc1F	-7%
CC(=O)Nc1ccc(NC(=O)CSc2nnc3[nH]c(=O)c(C)c(C)n23)cc1	-12%

Next part:
SMILES	Mtb H37Rv
NC(=O)c1nc(-c2ccccc2)nc2c1[nH]c(=O)n2-c1ccccc1F	-5%
CCN(CC)C(=O)CSc1nc2c([nH]c3ccccc32)c(=O)n1-c1ccccc1OC	0%
O=C(Nc1sc2c(c1C(=O)NCc1cccnc1)CCCC2)c1ccc(Cl)cc1	1%
Cc1ccc(-c2csc(NC(=O)c3ccc(S(=O)(=O)N4CCCCCC4)cc3)n2)cc1	22%
Nc1nc(SCc2cccc([N+](=O)[O-])c2)[nH]c(=O)c1NC(=O)c1ccco1	-5%
COc1cc(OC)cc(C(=O)Nc2nc(CC(=O)Nc3nnc(C)s3)cs2)c1	-6%
O=C(Nc1c(C(=O)Nc2ccccc2)oc2ccccc12)c1ccco1	-4%
Cc1ccc2cc(CCNC(=O)c3cccc(Br)c3)c(=O)[nH]c2c1	79%
Cc1ccc(-n2c(SCC(=O)Nc3nnc(C)s3)nc3c(c2=O)SCC3)cc1	11%
O=C(/C=C/c1ccccc1)Nc1nnc(C2=COCCO2)o1	-1%
Cc1cc(NC(=O)CSc2nc(-c3cccs3)nc3c2c(=O)n(C)c(=O)n3C)no1	-7%
Cc1ccc(-c2nc(Nc3cccc(C(=O)O)c3)c3ccccc3n2)cc1	40%
CCc1ccccc1NC(=O)C(=O)Nc1cc2c3c(c1)CCC(=O)N3CCC2	68%
COc1cc(C2C3=C(CC(C)(C)CC3=O)Nc3ncnn32)ccc1OCc1ccc(Cl)c(Cl)c1 (configuration not stated)	6.8µg/mL*
Cc1ccc(Nc2nc(N3CCN(c4ccc(F)cc4)CC3)nc3nccnc23)cc1Cl	70%
Cc1ccc(NC(=O)c2cnc3n(c2=O)CCS3)c(Br)c1	-1%
COc1ccc(-n2c(=O)[nH]c3c(C(N)=O)nc(-c4ccccc4C)nc32)cc1OC	-16%
COC(=O)c1ccccc1NC(=O)CSc1nc2ccccc2s1	83%
CCc1ccc(-c2nc(C(N)=O)c3[nH]c(=O)n(-c4ccc(C)c(C)c4)c3n2)cc1	-12%
O=C1N/C(=N/N=C/c2ccc(-c3ccc(Cl)cc3)o2)SC1Cc1ccccc1 (configuration not stated)	74%
CCS(=O)(=O)c1ccc(C(=O)Nc2sc(C)c(C)c2C(=O)NC)cc1	13%
COc1cc(C(=O)N/N=C/c2ccc(Br)o2)cc(OC)c1OC	-12%
CCOC(=O)c1nn(-c2ccc(C(C)C)cc2)c(=O)c2c(NC(=O)c3ccco3)scc12	0%
COC(=O)c1ccccc1NC(=O)CSc1nc(N)cc(=O)[nH]1	-10%
Fc1ccc(-n2ncc3c(NCCc4c[nH]c5ccccc45)ncnc32)cc1	8%
O=C(CN1C(=O)CC(c2ccco2)Sc2ccccc21)Nc1cccc(F)c1 (configuration not stated)	8%
Fc1ccc(-c2nnc3ccc(SCc4ccccn4)nn23)cc1	10%
CC(C)(CO)Nc1ncnc(N)c1[N+](=O)[O-]	13%
O=c1[nH]c(CSc2ccc(Cl)cc2)nc2ccccc12	12%
COc1cccc2sc(Nc3nc4c(F)cccc4s3)nc12	14µg/mL*
O=C(CSc1nc2c([nH]c3ccccc32)c(=O)n1-c1cccc(C(F)(F)F)c1)NCC1CCCO1 (configuration not stated)	6%
COc1ccc(S(=O)(=O)c2cn(CC(=O)Nc3ccc(F)cc3)c3ccc(F)cc3c2=O)cc1	5%
O=C(Cn1ccn(-c2ccc3c(c2)OCCO3)c(=O)c1=O)NCc1ccccc1Cl	-7%
CCCC(=O)Nc1sc2c(c1C(N)=O)CCN(C(C)=O)C2	-3%
COc1cc2c3nnc(-c4ccc(C)cc4)c-3cn(Cc3ccccc3F)c2cc1OC	79%
Cc1ccc2cc(CCNC(=O)C(=O)c3c(C)[nH]c4ccccc34)c(=O)[nH]c2c1	1%
CCN(CC(O)Cn1c2ccccc2c2ccccc21)S(=O)(=O)c1ccc(Cl)cc1 (configuration not stated)	28%
CCOc1ccc2cc(/C=N/NC(=O)c3ccc([N+](=O)[O-])cc3)c(=O)[nH]c2c1	0%
Cc1ccc(-c2nnc3ccc(SCC(=O)N4CCN(c5ccccc5)CC4)nn23)cc1	-4%
Cn1c(=O)[nH]c(=O)c2c1nc(Sc1ccccc1)n2CCc1ccccc1	-4%

The last seven compounds of the part above open the next one.
SMILES	Mtb H37Rv
CCCC(=O)Nc1sc2c(c1C(N)=O)CCN(C(C)=O)C2	-3%
COc1cc2c3nnc(-c4ccc(C)cc4)c-3cn(Cc3ccccc3F)c2cc1OC	79%
Cc1ccc2cc(CCNC(=O)C(=O)c3c(C)[nH]c4ccccc34)c(=O)[nH]c2c1	1%
CCN(CC(O)Cn1c2ccccc2c2ccccc21)S(=O)(=O)c1ccc(Cl)cc1 (configuration not stated)	28%
CCOc1ccc2cc(/C=N/NC(=O)c3ccc([N+](=O)[O-])cc3)c(=O)[nH]c2c1	0%
Cc1ccc(-c2nnc3ccc(SCC(=O)N4CCN(c5ccccc5)CC4)nn23)cc1	-4%
Cn1c(=O)[nH]c(=O)c2c1nc(Sc1ccccc1)n2CCc1ccccc1	-4%
O=C1NC(=Nc2ccc(F)cc2)S/C1=C\c1ccc(F)cc1	6%
CCOc1ccc(N2CC(NC(=O)c3cccc(Br)c3)CC2=O)cc1 (configuration not stated)	1%
O=S(=O)(Nc1cccc(-c2ccc(N3CCCC3)nn2)c1)c1cccnc1	-11%
CCCCC(=O)Nc1c(C(=O)Nc2ccccc2)oc2ccccc12	8%
CCCCC(=O)Nc1nnc(-c2ccc(C)cc2C)o1	76%
Nc1ncnc(NNC(=O)CNC(=O)c2ccccc2F)c1[N+](=O)[O-]	7%
CCc1ccc(NC(=O)CSc2nc3[nH]ncc3c(=O)[nH]2)cc1	46%
Oc1c(/C=C2\C=Nc3ccccc32)sc(=S)n1-c1ccc2c(c1)OCO2	12%
CC(=O)Nc1ccc(Nc2nc(-c3ccccc3)c3cc(C)ccc3n2)cc1	99%
COc1cccc(-c2nc(C(N)=O)c3[nH]c(=O)n(-c4ccc(F)cc4)c3n2)c1O	-6%
Cc1ccc(Cn2c(N3CCN(Cc4cccc(Cl)c4)CC3)nc3c2c(=O)[nH]c(=O)n3C)cc1	59%
CC(C)(C)C(=O)Nc1nnc(-c2ccc(F)cc2)s1	5%
O=C(COc1ccccc1)Nc1cc2c3c(c1)CCC(=O)N3CCC2	14%
CCOc1ccc(-n2c(SCC(=O)Nc3ccc(Br)cc3)nc3c([nH]c4ccccc43)c2=O)cc1	5%
CC(C)c1ccc(NC(=O)CSc2nccn(-c3cccc(F)c3)c2=O)cc1	-9%
Cc1ccc(S(=O)(=O)N(C)CC(O)Cn2c3ccccc3c3ccccc32)cc1 (configuration not stated)	7%
C=C(C)CSc1nc2c(c(=O)n(C)c(=O)n2C)n1Cc1cccc(C)c1	5%
CCNC(=S)NCCc1cc2ccc(C)cc2[nH]c1=O	5%
COc1ccccc1Cn1c(SCC(N)=O)nc2c(oc3ccccc32)c1=O	4%
Cc1ccccc1Cn1cc(S(=O)(=O)CC(=O)Nc2nccs2)c2ccccc21	7%

Filtered by structure, the compounds so far with a COOH group
SMILES	Mtb H37Rv
Cc1ccc(NC(=O)CN2C(=O)/C(=C3\SC(=S)N(CCC(=O)O)C3=O)c3ccccc32)c(C)c1	-18%
Cc1ccc(-c2nc(Nc3cccc(C(=O)O)c3)c3ccccc3n2)cc1	40%

The listing continues.
SMILES	Mtb H37Rv
CC1CCc2c(sc(NC(=O)c3ccc4ccccc4c3)c2C#N)C1 (configuration not stated)	1%
CCOC(=O)c1oc2cc(O)cc(O)c2c(=O)c1-c1ccc(OC)c(OC)c1	-17%
COc1ccc2nc(-c3ccc(C)c(NC(=O)c4ccccc4C(F)(F)F)c3)cn2n1	7%
CC1Cc2nc(SCC(=O)Nc3ccc(Cl)c(Cl)c3)n(Cc3ccccc3)c(=O)c2S1 (configuration not stated)	-3%
CC(C)C(=O)Nc1nnc(-c2ccc(Cl)cc2Cl)s1	10%
COc1ccc(N2CCCS2(=O)=O)cc1NC(=O)C(=O)Nc1ccc(C(N)=O)cc1	-6%
COc1ccc(C(=O)/C=C\c2cn(CCC(=O)O)nc2-c2ccc(Br)cc2)cc1	4%
COc1ccc(CNc2nc3c(S(=O)(=O)c4ccc(C)cc4C)nnn3c3ccccc23)cc1	-4%
O=C(Nc1nnc(-c2ccc(Br)cc2)s1)C1CCCCC1	7%
O=C1C2C3CC(C2C(=O)N1c1ccc(Cl)cc1)C1C(c2cccnc2)c2sc(=O)[nH]c2SC31 (configuration not stated)	1%
CC(C)CC(=O)Nc1ccc(S(=O)(=O)N2CCCC2)cc1	9%
O=C(CSc1cn(Cc2ccccc2)c2ccccc12)Nc1nc2ccccc2s1	7%
COc1ccc(C(=O)Nc2nnc(-c3cc(Cl)ccc3Cl)o2)cc1OC	78%
Cc1ccc(NC(=O)CSc2ccc3nnc(-c4cccc(F)c4)n3n2)cc1Cl	-1%
O=C(CCCl)Nc1c(C(=O)Nc2ccc3c(c2)OCCO3)oc2ccccc12	-8%
COc1ccc([N+](=O)[O-])cc1/C=C(\C#N)c1nc(-c2cc3ccccc3oc2=O)cs1	-6%
COc1ccc(C(=O)Nc2nc(-c3ccccc3)c(C(=O)c3ccccc3)s2)cc1	9%
C=CCn1c(SCc2cccc(C)c2)nc2c1c(=O)[nH]c(=O)n2C	19%
CCOC(=O)c1nn(-c2cccc(Cl)c2)c(=O)c2c(NC(=O)c3ccc(S(=O)(=O)N4CCOCC4)cc3)scc12	-6%
Cc1ccc(-n2nnc3c(=O)n(CC(=O)N4CCc5ccccc54)cnc32)cc1C	-22%
CS(=O)(=O)c1ccc(-c2nnc(NC(=O)c3ccco3)o2)cc1	-1%
COc1ccc(-c2csc(NC(=O)CN3C(=O)CCC3=O)n2)cc1	-3%
Cc1cccc(N2C(=O)c3ccc(C(=O)OCC(=O)Nc4ccccc4Cl)cc3C2=O)c1C	2%
CCOC(CNc1ncnc2c1cnn2-c1cccc(Cl)c1)OCC	8%
CCOC(=O)c1oc2ccccc2c1NC(=O)c1cccc(C(F)(F)F)c1	2%
COc1ccc(N2CCN(c3ncnc4c3cnn4-c3cccc(C)c3)CC2)cc1	6%
COC(=O)c1ccc(NC(=O)CC2SC(N)=NC2=O)cc1 (configuration not stated)	11%
CCC(CC)C(=O)N1CC(=O)Nc2ccc(Cl)cc2C1c1ccc(F)cc1 (configuration not stated)	16%
COC(=O)CSc1nnc2[nH]c(=O)cc(C)n12	-6%
CCOCCCn1c(O)c(/C=C2/C=c3cc(C)ccc3=NC2=O)sc1=S	-14%
COc1cccc(NC(=O)CSc2nnc(-c3ccncc3)n2-n2cccc2)c1	-1%
Cc1ccc(C)c(Cn2cc(SCC(=O)Nc3nnc(C)s3)c3ccccc32)c1	-9%
COc1ccc(C(=O)Nc2cc3c4c(c2)CCC(=O)N4CCC3)cc1OC	-8%
CCc1nnc(NC(=O)CSc2nc3c([nH]c4ccccc43)c(=O)n2-c2ccccc2)s1	12%
CC(=O)Nc1c(C(=O)Nc2ccc3c(c2)OCO3)oc2ccccc12	-9%
Cc1ccc(-n2ncc3c(=O)n(CC(=O)NCc4ccc5c(c4)OCO5)cnc32)c(C)c1	-4%
O=C(CN1C(=O)/C(=C\c2cccs2)SC1=S)Nc1ccc(O)cc1	-35%
CCOC(=O)CSc1nc2c([nH]1)c(=O)n(C)c(=O)n2C	1%
Clc1ccc(Cl)c2sc(N3CCOCC3)nc12	1%
CCCCn1c(=N)c(C#N)cc2c(=O)n3cccc(C)c3nc21	17%

This is a subset. The share of hits here may be higher or lower than overall.
